Screening data from PubChem BioAssay.
gsp antagonist = qHTS for Antagonists of gsp, the Etiologic Mutation Responsible for Fibrous Dysplasia/McCune-Albright Syndrome: qHTS; 0.4% of 340,000 active; Potency, µM (top dose mostly 76.9 µM), inactives show at the top dose activity change, negative = inhibition, usual class: inhibitors; gsp-mutant cells, cAMP HTRF, 30 min; control for the full effect not named in the record; active = falling curve of any shape with a large fitted effect; inconclusive = falling curve, mostly with a smaller effect; inactive = flat or rising curve; cell line not stated here;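 also: intracellular cAMP measured with PDE inhibitor Ro 20-1724 present during compound exposure; potency is read from the fitted curve at half-maximal effect; % is scaled to controls: 0 for no effect and ±100 for the full control effect; nearly all actives have a fitted effect of over 65% in size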
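HTRF cAMP read-out (cAMP-d2 plus anti-cAMP antibody-K in lysis buffer, 30 min RT). Before lysis, cells are exposed to compounds with […] for 30 min at 37C in DPBS containing Ca/Mg, BSA and Tween 20.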
Menin MLL FP FL = qHTS Assay for Inhibitors Targeting the Menin-MLL Interaction in MLL Related Leukemias: Competition With Fluorescein Labeled MLL-derived Peptide; Fluorescence polarization, fluorescein-MLL peptide displacement from menin; FP activity change, % at 61.4 µM; 290,000 tested, under 10 active; AID 1766, 2009; inconclusive = falling polarisation curve, or a change in total fluorescence; inactive = total fluorescence flat and polarisation flat or rising; no compound was filed as active; the % refers to the polarisation; negative = inhibition;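 also: % of control where 0% means no effect; inhibitors lower the polarisation; unlabelled MLL peptide was the positive control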
TRPV1 PAM = HTS Assay for Compounds that Act as Potentiators of the Vanilloid Receptor 1. Transient receptor potential cation channel subfamily V member 1 (Homo sapiens), Q8NER1. TRPV1-expressing cells, Fluo-8 calcium influx, capsaicin EC20 potentiation; host cell line not named in the record; control for the full effect not named in the record. potentiation, % at 8.33 µM. 0.02% of 320,000 active; active means potentiation above 80%; inconclusive means 30% to 80%; inactive means below 30%; also: 0% is about no effect
Target sequence (Q8NER1 whole entry, looked up): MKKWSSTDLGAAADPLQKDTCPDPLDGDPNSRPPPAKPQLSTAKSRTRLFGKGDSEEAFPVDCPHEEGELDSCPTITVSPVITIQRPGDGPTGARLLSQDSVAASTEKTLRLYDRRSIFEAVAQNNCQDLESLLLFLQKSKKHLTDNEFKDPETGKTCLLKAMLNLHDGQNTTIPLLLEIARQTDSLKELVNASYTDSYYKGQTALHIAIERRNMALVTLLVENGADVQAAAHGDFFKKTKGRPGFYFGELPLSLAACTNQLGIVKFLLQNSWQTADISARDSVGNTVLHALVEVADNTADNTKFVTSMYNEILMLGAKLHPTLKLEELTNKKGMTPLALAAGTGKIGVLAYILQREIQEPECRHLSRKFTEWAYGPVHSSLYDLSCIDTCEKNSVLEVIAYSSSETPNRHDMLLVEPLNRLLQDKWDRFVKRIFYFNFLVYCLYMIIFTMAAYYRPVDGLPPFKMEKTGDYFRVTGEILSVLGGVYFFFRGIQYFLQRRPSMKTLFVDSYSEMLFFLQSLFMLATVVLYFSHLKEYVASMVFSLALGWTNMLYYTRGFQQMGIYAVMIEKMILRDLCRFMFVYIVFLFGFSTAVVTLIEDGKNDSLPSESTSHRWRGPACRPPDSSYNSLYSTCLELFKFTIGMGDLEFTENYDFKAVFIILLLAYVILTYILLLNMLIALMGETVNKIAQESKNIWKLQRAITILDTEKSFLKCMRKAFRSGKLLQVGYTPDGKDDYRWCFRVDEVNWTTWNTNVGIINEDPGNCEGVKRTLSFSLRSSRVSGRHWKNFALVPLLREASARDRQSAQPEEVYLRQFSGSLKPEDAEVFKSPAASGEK
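Fluo-8 calcium influx in TRPV1-expressing cells, kinetic read (ex 480/em 520 nm). Compound added and read 3 min for agonist activity, followed by capsaicin at EC20 final and 2 min further read for enhancement.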
gsp agonist = qHTS for Agonist of gsp, the Etiologic Mutation Responsible for Fibrous Dysplasia/McCune-Albright Syndrome: qHTS | 0.13% of 340,000 active | gsp mutant cells, cAMP HTRF, 30 min; control for the full effect not named in the record | Potency, µM (titrated, usually from 76.9 µM), without a hit: at the top dose activation (cAMP increase), actives largely listed as activators; active = well fitted activation curve with a large enough effect; inconclusive = small, poorly fitted or top-dose-only effect, or another doubt; inactive = no such curve, though single readings can be large or run the other way; cell line not stated here;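 also: phosphodiesterase inhibitor Ro 20-1724 added with compounds to block cAMP breakdown; potency is read from the fitted curve at half-maximal effect; nearly all actives have a fitted effect of over 60% in size; about a fifth of the inactives were tested at one dose only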
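Cells in DMEM/10% FBS with G418 were pretreated with compounds in DMSO plus […] (300 uM stock) for 30 min at 37C. cAMP was measured by HTRF (cAMP-d2 plus anti-cAMP antibody-K) after 30 min at room temperature.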
ClpP mod = qHTS Assay for Activators of ClpP; ATP-dependent Clp protease proteolytic subunit (Bacillus subtilis (strain 168)), P80244; purified B. subtilis ClpP, FRET peptide cleavage, 20 min; Potency, µM (titrated, usually from 57.5 µM), without a hit: at the highest dose activity change, negative = active; 1.9% of 340,000 active; active = well fitted falling curve with a large enough effect; inconclusive = small, poorly fitted or top-dose-only effect; inactive = no such curve, though single readings can be large or run the other way; also: potency is read from the fitted curve at half-maximal effect; the source files actives as falling curves though it sought activators and does not explain the sign; nearly all actives have a fitted effect of over 65% in size; many hits overshoot -100%
Target sequence (P80244 whole entry, looked up): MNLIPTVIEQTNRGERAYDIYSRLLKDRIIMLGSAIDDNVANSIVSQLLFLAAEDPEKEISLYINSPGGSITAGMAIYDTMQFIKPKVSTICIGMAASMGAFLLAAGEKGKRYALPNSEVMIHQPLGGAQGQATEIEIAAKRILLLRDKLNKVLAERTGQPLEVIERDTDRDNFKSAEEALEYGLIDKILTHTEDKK
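ClpP 10 microg/mL final, pH 8 Tris/KCl buffer with BSA, glycerol, Tween-20; compound pinned in; FRET-FV substrate; RT 20 min; Ex320/Em430; ΔFRET vs ADEP 5.8 microM, DMSO, no enzyme.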
Sfp inh = qHTS Assay for Inhibitors of Bacillus subtilis Sfp phosphopantetheinyl transferase (PPTase); Potency, µM, for the others: max response, negative = inhibition, most hits filed as inhibitors; AID 1490, 2009; Biochemical Sfp PPTase activity, qHTS; 3.5% of 310,000 active; active = well fitted inhibition curve with a large enough effect; inconclusive = small, poorly fitted or top-dose-only effect, or another doubt; inactive = no such curve, though single readings can be large or run the other way;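 also: the enzyme is Sfp with the accession as filed and its product quenches rhodamine fluorescence; potency is read from the fitted curve at half-maximal effect; 0% = enzyme reaction without inhibitor and -100% = no enzyme wells; top concentration of the series not given in the record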
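Step 1, compound plus 15 nM Sfp-PPTase, 15 min, room temperature. Step 2, add rhodamine-CoA (5 uM) and BHQ-2-YbbR (12.5 uM). Step 3, read 525/598 nm fluorescence at 0 and 30 min.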
CtBP-E1A inh = qHTS Assay for Inhibitors of the CtBP/E1A Interaction. CtBP / adenovirus E1A interaction (AlphaScreen). AlphaScreen GST-E1A/His-CtBP binding, 1536-well; hits give low values; control for the full effect not named in the record. activity change, % (test concentration not listed). 0.49% of 340,000 active. AID 651724, 2012; in the data active means activity change below about -65%; inconclusive means about -30% to -65%; inactive means above about -30%; also: % is scaled to controls: 0 for no effect and ±100 for the full control effect; compound concentration not given in the record
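GST-E1A and His-tagged CtBP (125 nM each as 5X stock) were preincubated with pin-transferred compound for 2 h at 37 °C in the dark, then glutathione donor and nickel acceptor beads were added for 1 h before AlphaScreen reading.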
Active calls of the source: *; ? = inconclusive; / = no result given; & = joins results of further samples; [ ] = another dose, or the depositor's remark.

SMILES	gsp antagonist	Menin MLL FP FL	TRPV1 PAM	gsp agonist	ClpP mod	Sfp inh	CtBP-E1A inh
COc1ccccc1NC(=O)NC1(C(=O)N2CCN(C)CC2)CCCCC1	4%	0.6	-7	17%	/	11%	7
COc1ccc(N2CCCn3c2nc2c3c(=O)n(Cc3ccc(C)cc3)c(=O)n2C)c(OC)c1	?	1.5	1	19%[15.4 µM]	/	-14%	-3
COc1ccccc1C(=O)NCC(=O)NC(C)CCc1ccccc1 (stereo not given)	16%	/	-5	-19%	0.8%	19%	-3
Cc1ccc(N(C(=O)CNC(=O)c2ccco2)C(C(=O)NCC2CCCO2)c2ccccc2)cc1 (stereo not given)	-15%	2.9	-3	-1%	0.1%	18%	0
Cc1ccccc1CC(=O)Nc1ccc(S(=O)(=O)N2CCN(C)CC2)cc1	10%	/	-5	-1%[15.4 µM]	-1.4%	1%	12
CCCn1c(=O)c(C(=O)Nc2ccccc2N)c(O)c2ccccc21	/	/	/	-18%	-17%	/	3
Cc1cccc(C)c1N=C1NN=C(c2ccccc2F)CS1	-19%	6.4	24	2%	1.0%	-10%	2
CC(=O)c1ccc(OCC(=O)OCC(=O)c2ccc(S(=O)(=O)N3CCCCC3)cc2)cc1	/	/	/	-94%[inhibitor]	-0.7%	/	3
O=C(Cc1cccc(C(F)(F)F)c1)OCC(=O)N1CCN(S(=O)(=O)c2ccc(Cl)cc2)CC1	2%	/	-5	6%[15.4 µM]	/	/	11
O=C(CCN1C(=O)c2ccccc2S1(=O)=O)NCc1ccco1	-1%	2.4	5	-41%	0.9%	12%	17
O=C(CNC(=O)c1ccc(Cl)cc1)OCCN1C(=O)c2ccccc2C1=O	3%	/	6	?	-0.1%	/	/
O=C(COc1ccc(=O)n(-c2ccccc2)n1)Nc1ccccc1	7%	-0.2	-6	?	-0.2%	20%	-7
CCC(C)[C@H](NC(=O)Nc1ccc(S(N)(=O)=O)cc1)C(=O)O (stereo not given in full)	16%	0.4	3	-2%	-0.7%	-3%	3
COc1cc(NC(=O)NCC2CCN(Cc3ccccc3C)CC2)cc(OC)c1OC	8%	5.4	12	13%[15.4 µM]	-0.1%	8%	-17
COC(=O)C1=C(C(=O)OC)[C@@H]2N(Cc3ccccc3)c3ccccc3[C@@]23C[C@@H](C(=O)OC)N(C(=O)CC(C)C)C3=N1	-13%	-1.3[11.7 µM]	?	/	3.6%	?	-18
O=C(COC(=O)c1ccc(F)cc1F)c1ccc[nH]1	9%	/	?	-12%	-1.6%	/	-14
COc1ccc2c(CC(=O)N[C@@H](Cc3c[nH]c4ccccc34)C(=O)O)cc(=O)oc2c1	1%	7.3	4	-7%[15.4 µM]	-5.0%	-3%	-2
CNC(=O)C[C@@H]1C(=O)N(c2ccc(Br)cc2)CC1(C)C	/	/	/	0%	0.6%	/	-1
CCOc1ccc(NC(=O)CN(C)C(=O)c2ccc(N3CCCCC3)c([N+](=O)[O-])c2)cc1OCC	-15%	/	1	5%[15.4 µM]	-2.0%	/	-15
COc1cccc(-n2c(SCC(=O)NC(C)(C)C)nnc2-c2ccoc2C)c1	-12%	-1.1	-21	0%	-0.4%	6%	-4
CS(=O)(=O)c1ccccc1-c1nc(-c2cc(C(F)(F)F)cc(C(F)(F)F)c2)no1	-17%	-0.8	-3	-9%	-0.7%	45µM*	5
CCCCOc1cc(C)nc(NCc2ccccc2)n1	8%	-0.7	10	-20%	?	1%	12
COc1ccc(C(O)Cn2ccsc2=NC(C)=O)cc1 (stereo not given)	-15%	-1.2	15	-35%[15.4 µM]	/	-11%	4
Cc1ccc(NC(=O)CN2CCCC2)cc1Br	-13%	2.3	-3	9%	/	-9%	-3
N#Cc1nc(-c2cccs2)oc1NCc1ccccc1Cl	-5%	1.5	/	11%	-5.9%	6%	-15
Cc1ccsc1C(=O)Nc1cc(C(C)(C)C)nn1-c1ccccc1	-9%	4.3	-10	7%	-0.2%	8%	10
CC(C)(C)OC(=O)N1CCC(C(=O)Nc2cccc(C(=O)N3CCOCC3)c2)CC1	8%	/	/	?	0.1%	/	4
Nc1c(C(=O)Nc2ccc(Cl)c(Cl)c2)sc2nc(-c3cccnc3)ccc12	/	7.8	3	/	/	-18%	/
Cc1ccccc1NC(=O)c1cc(S(=O)(=O)N2CCOCC2)cn1C	11%	-6.5	-6	23%	-0.8%	13%	4
CCCCCSc1nc(O)cc(=O)[nH]1	1%	-0.3	-2	16%	2.6%	12%	-7
Cc1ccc(C)c(NC(=O)COC(=O)c2ccc[n+]([O-])c2)c1	0%	/	/	-5%[15.4 µM]	-2.1%	/	-4
COc1ccc(-n2nc3c(N4CCC(C(=O)NCc5ccccc5)CC4)nnc(C)c3c2C)cc1	-2%	/	-10	?	3.1%	-3%	-2
Cc1cccc(Cn2cnc3c(NS(C)(=O)=O)c(C)c(C)cc32)c1	-2%	2.0	-15	3%	-2.4%	12%	-10
O=C(CN1C(=O)c2ccccc2S1(=O)=O)c1ccc(F)c(F)c1	-10%	3.5	6	12%	-0.1%	5%	3
Cc1cc2ccccc2c(=O)n1CC(=O)N(C)c1ccc(F)cc1	13%	-0.9	?	-20%	?	14%	3
CCOCCn1c(=NC(=O)CSCC(=O)Nc2cc(C)on2)sc2cc(OC)ccc21	-6%	/	9	-20%	-20%	7%	-3
Cc1nnc(NN2CCOCC2)[nH]c1=O	5%	-0.1	-2	-25%	/	1%	-5
COc1cc2ncnc(NCCc3ccccc3)c2cc1OC	-47%	1.6	-7	30%	-19%	-17%	-10
O=C(CSc1nnc(-c2ccccc2)c(-c2ccccc2)n1)NC1CCS(=O)(=O)C1 (stereo not given)	-4%	-1.4	-14	8%[15.4 µM]	/	13%	1
Fc1ccc2c(c1)c1n[nH]c(=S)nc1n2CCc1ccccc1	?	0.0	11	?	-0.3%	4%	0
Cc1nc(-c2ccccc2)sc1C(=O)CSc1ccc(Br)cc1	-8%	0.5	8	-8%	-2.6%	-15%	31
Cc1ccc(CN2C(=O)CCC2C(=O)NCCN(CC(C)C)CC(C)C)cc1 (stereo not given)	5%	-1.2	?	-4%	-0.9%	4%	4
Cc1nn(-c2ccccc2)c(C)c1C(=O)OC/C(O)=C(\C#N)c1nc2ccccc2[nH]1	-14%	14	-16	-32%	0.1%	-6%	-28
Cc1cc(NC(=O)C2CCN(S(=O)(=O)c3c(C)noc3C)CC2)ccc1Br	1%	/	-19	-5%	-3.6%&0.9%	8%	/
CCc1cccc(C)c1NC(=O)c1ccccc1	0%	3.7	-13	-9%	/	9%	6
COc1ccccc1CNC(=O)C1CC(=O)N(C2CCCC2)C1 (stereo not given)	5%	-1.5	3	-35%[inhibitor]	0.0%	19%	6
COc1cccc(N2CCN(S(=O)(=O)c3cn(C)cn3)CC2)c1	10%	-3.3	5	?	-2.6%	6%	-17
N/C(Cc1ccc([N+](=O)[O-])cc1)=N\OC(=O)COc1cccc2ccccc12	7%	5.7	5	0%	-0.7%	12%	-8
CC(NC(=O)COC(=O)/C=C/c1cccc(C(F)(F)F)c1)c1ccccc1 (stereo not given)	-1%	6.1	-5	-17%[15.4 µM]	/	9%	3
COc1ccccc1N1CCN(C(=O)c2cn(-c3ccccc3)nc2-c2cccnc2)CC1	-6%	6.0	-5	5%	0.9%	7%	10
COc1ccc(C(=O)O/N=C(\N)c2ccc(Br)cc2)cc1	-10%	1.2	-37	-22%[15.4 µM]	-11%	4%	5
CCCCCn1c(SCC(=O)c2ccccc2)nc2cc(C(=O)NCC3CCCO3)ccc2c1=O (stereo not given)	-16%	/	/	14%	-2.8%	/	3
O=c1cc(CSc2ccc(Cl)cc2)nc2nc[nH]n12	-4%	-1.0	-13	23%	-0.3%	9%	0
Cc1cccc(C)c1NC(=O)NC1(C(=O)N2CCCC2)CCCCC1	-45%	/	-1	15%[15.4 µM]	/	9%	6
CCCCSc1nc2c(cnn2-c2ccc(Cl)cc2)c(=O)[nH]1	6%	-1.1	/	-7%	-1.5%	15%	-2
COCCN(C(=O)CCC(=O)Nc1nccs1)C(C(=O)NC(C)(C)C)c1ccc(Cl)cc1 (stereo not given)	-3%	-7.1	-12	-14%[15.4 µM]	/	11%	7
CCN1CCN(c2ccc(NC(=O)CCc3c(C)nc4c(-c5ccccc5)c(C)nn4c3C)cc2)CC1	-4%	4.5	/	15%	-1.4%	7%	-9
O=C(Nc1cc(S(=O)(=O)N2CCCCC2)ccc1Cl)c1ccccc1NS(=O)(=O)c1ccc(F)cc1	?	7.1	18	-4%	?	1%	2
O=C(Cn1cc(C(F)(F)F)ccc1=O)NCc1ccc(F)cc1	17%	0.3	17	0%[15.4 µM]	/	14%	-2
COc1cc(CNc2nnnn2C)ccc1OCc1ccc(F)cc1Cl	-7%	-6.3	-12	-68%[inhibitor]	0.7%	14%	/

(more compounds)
SMILES	gsp antagonist	Menin MLL FP FL	TRPV1 PAM	gsp agonist	ClpP mod	Sfp inh	CtBP-E1A inh
CC1=C(C(=O)Nc2ccccc2)C(c2coc3ccccc3c2=O)C2=C(CCCC2=O)N1 (stereo not given)	-6%	4.2	8	15%	-5.1%	11%	10
CCc1ccc(/C=N\NC(=O)c2ccc(Br)o2)s1	11%	-1.7	-31	-2%	-27%	-8%	-7
COc1cccc2cc(C(=O)NCCc3c[nH]c4ccccc34)c(=O)oc12	-3%	-1.8	13	-4%	-2.7%	-1%	-26
O=C(OCc1ccccc1)N1CCOCCN(C(=O)OCc2ccccc2)CCOCC1	-1%	0.8	-3	6%[15.4 µM]	-0.1%	8%	-17

Individual results from the results shown.
Value for CCc1ccc(/C=N\NC(=O)c2ccc(Br)o2)s1 under ClpP mod: -27%
Value for COc1cccc2cc(C(=O)NCCc3c[nH]c4ccccc34)c(=O)oc12 under CtBP-E1A inh: -26

Not a hit list; about 5.3% have a hit in one of these screens.
